TAR Tat displ = HIV-1 TAR-Tat binding disruption | HIV-1 TAR RNA, Tat peptide displacement FRET; active compounds read high | z-score (test concentration not listed) | actives 0.6% (n = 100,000);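 further: score is relative to mean and SD of negative controls; some compounds called inactive have numbers as strong as hits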
CDC25B-CDK2 inh = human CDC25B-CDK2/CyclinA binding inhibition; P30305+P24941; HTRF CDC25B-CDK2/CyclinA binding, anti-His/anti-Flag; active compounds read high; z-score (no concentration beside the values); actives 0.72% (n = 94,000);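 further: score is relative to mean and SD of negative controls; strong numbers were not always called active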
* hit, by the source's call.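 How the source made its calls: active means z-score from 3 up in half or more of its runs; inactive means the rest.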 This is a random part of the collection, and some 0.87% of all compounds hit somewhere here.

For N#CC1=C(N)OC2=C(C(=O)CCC2)C1c1cccc(OCc2ccccc2)c1 (centres undefined) the results were CDC25B-CDK2 inh -0.27.
`Cc1ccc(-c2coc(-c3ccc(NS(=O)(=O)c4ccc(F)cc4)cc3)n2)cc1C` gave TAR Tat displ -0.03.
CCC1CN(C(=O)N2CCC(C(=O)N3CCN(c4ccccn4)CC3)CC2)c2ccccc2O1 (centres undefined) was read as TAR Tat displ 1.6.
Screening COc1cc2c(cc1NS(=O)(=O)c1ccc([N+](=O)[O-])cc1)oc1ccccc12 returned CDC25B-CDK2 inh -0.91.
CN(CC(=O)NC1CCCCC1)S(=O)(=O)c1ccc2[nH]c(=O)ccc2c1 was read as TAR Tat displ 0.04.
O=C(c1csc(S(=O)(=O)N2CCc3ccccc3C2)c1)N1CCOCC1 was read as TAR Tat displ 0.8.
Screening CC(=O)/C(C=Nc1cccc(F)c1C#N)=C(\C)O returned CDC25B-CDK2 inh -2.4.
`CC(C)(C)c1ccc(Oc2coc3cc(O)ccc3c2=O)cc1` gave TAR Tat displ 0.42 and CDC25B-CDK2 inh -1.6.
For Cc1[nH]c2ccc(Cl)cc2c(=O)c1CN1CCN(C)CC1 the results were TAR Tat displ 1.1 and CDC25B-CDK2 inh -1.2.
CCCn1nc(C)cc1-c1ccc2c(c1)CN1CCC(O)C1=N2 (centres undefined) was read as TAR Tat displ 0.44.
Screening CC1=C(C(=O)NCc2ccc3c(c2)OCO3)C2(CCCCC2)OC1=O returned TAR Tat displ 0.81 and CDC25B-CDK2 inh -0.51.
`Cc1ccc2nc(Nc3ncc4c(n3)CC(C)(C)CC4=O)nc(C)c2c1` gave TAR Tat displ 1.3 and CDC25B-CDK2 inh 0.26.
For O=C(O)c1ccccc1Nc1ccccc1F the results were CDC25B-CDK2 inh -1.5.
CC1(C)OC(=O)C(=C2CCCN2)C(=O)O1 was read as CDC25B-CDK2 inh -0.87.
Screening COc1ccc(S(=O)(=O)Nc2cc3c(cc2OC)n(C)c(=O)n3C)cc1Cl returned TAR Tat displ -0.56 and CDC25B-CDK2 inh -0.96.
`Cc1ccc2nc(Nc3cccc(O)c3)c3nnnn3c2c1` gave TAR Tat displ 0.51.
For CC1=Nc2ccccc2N=C(NC(=O)Nc2ccccc2)C1c1ccccc1 (centres undefined) the results were TAR Tat displ 1.3.
COc1nc2c(C)cccc2cc1-c1noc(-c2ccncc2)n1 was read as TAR Tat displ 1.6 and CDC25B-CDK2 inh -2.7.
For COC(=O)C1CCN(c2csc3ccc(Br)cc3c2=O)CC1 the results were TAR Tat displ 0.75.
Screening Cc1csc(-n2[nH]c(C)c(CCC(=O)NC(C)C)c2=O)n1 returned TAR Tat displ -0.4 and CDC25B-CDK2 inh -0.87.
For Cc1[nH]nc(-c2ccc(S(=O)(=O)Nc3ccc(Cl)cc3)s2)c1C the results were TAR Tat displ 1.1.
Screening Cc1ccccc1-c1nc(CSc2nc3ccncc3[nH]2)c(C)o1 returned TAR Tat displ -0.73 and CDC25B-CDK2 inh -0.38.
For O=c1oc(-c2ccccc2)nc2c1oc1ccccc12 the results were TAR Tat displ 3.8 and CDC25B-CDK2 inh -0.96.
`CCOC(=O)/C(C#N)=C/NCCc1c[nH]c2ccccc12` gave CDC25B-CDK2 inh 0.28.

Quoted at random: 4 entries already listed, in no set order.
For O=C(O)c1ccccc1Nc1ccccc1F the results were CDC25B-CDK2 inh -1.5.
Screening Cc1ccccc1-c1nc(CSc2nc3ccncc3[nH]2)c(C)o1 returned TAR Tat displ -0.73 and CDC25B-CDK2 inh -0.38.
For CC1=Nc2ccccc2N=C(NC(=O)Nc2ccccc2)C1c1ccccc1 (centres undefined) the results were TAR Tat displ 1.3.
COc1nc2c(C)cccc2cc1-c1noc(-c2ccncc2)n1 was read as TAR Tat displ 1.6 and CDC25B-CDK2 inh -2.7.

The listing picks up, repeating the 2 entries before the break.
For O=c1oc(-c2ccccc2)nc2c1oc1ccccc12 the results were TAR Tat displ 3.8 and CDC25B-CDK2 inh -0.96.
`CCOC(=O)/C(C#N)=C/NCCc1c[nH]c2ccccc12` gave CDC25B-CDK2 inh 0.28.
`Cn1c(=O)c2c(SCC(=O)N3CCc4ccccc43)nc(-c3ccco3)nc2n(C)c1=O` gave CDC25B-CDK2 inh -2.4.
For CCOC(=O)CCC(=O)Nc1ccc(S(=O)(=O)N2CCCCC2)cc1 the results were CDC25B-CDK2 inh -3.5.
For CC(=O)Nc1nc(-c2ccccc2)nc(C)c1-c1cc(C)c2c(C)nc(-c3ccccc3)nc2n1 the results were TAR Tat displ 1.2 and CDC25B-CDK2 inh -0.03.
Cc1cc(C)c2c(=O)nc(SCC(=O)NCCC(C)C)n(C3CC3)c2n1 was read as TAR Tat displ -0.4.
O=C(CSc1nnc(-c2cccs2)o1)NC(=O)Nc1ccccc1 was read as CDC25B-CDK2 inh -1.1.
For COc1ccc(OC)c2[nH]c(=O)c(CCNC(=O)CC3CCCCC3)cc12 the results were CDC25B-CDK2 inh -0.75.
Screening COc1cc(Cl)c(N2C(=O)c3ccncc3C2=O)c(OC)c1 returned TAR Tat displ 0.7.
Screening Cc1ccc(S(=O)(=O)NCCOC(=O)Nc2sc(=S)n(C)c2C)cc1 returned TAR Tat displ 0.03 and CDC25B-CDK2 inh -0.7.
Screening COc1ccc(NS(=O)(=O)c2ccc(F)cc2)cc1OC1CCCC1 returned CDC25B-CDK2 inh -0.69.
Cc1ccc(N=Cc2cc(-c3ccccc3)sc2O)c(C)c1 was read as TAR Tat displ -7.2 and CDC25B-CDK2 inh -0.5.
COc1ccc2c(c1)CC(NC(=O)NCCCN1CCCC1)CO2 (centres undefined) was read as TAR Tat displ 0.68.
For Cc1ccc(C(CC(=O)c2ccco2)SCCO)cc1 (centres undefined) the results were TAR Tat displ 15 and CDC25B-CDK2 inh -1.9.
`Cc1ccc(OCc2cc(=O)n3c4c(sc3n2)CCCC4)cc1C` gave TAR Tat displ -1.2 and CDC25B-CDK2 inh -1.4.
CCCNC(=O)C(CC)n1c2ccccc2c2nc(=O)cc(C)n21 (centres undefined) was read as TAR Tat displ -1.1 and CDC25B-CDK2 inh -1.2.
`Cn1c(=O)[nH]c(=O)c2c1nc(N1CCCCC1)n2CCSc1nc2ccccc2[nH]1` gave CDC25B-CDK2 inh -0.28.
`CCOc1ccccc1-c1nc(-c2ccc(OC)c(OC)c2)no1` gave TAR Tat displ 1.6 and CDC25B-CDK2 inh -2.8.
Cc1ccc(Cl)cc1NS(=O)(=O)c1cn(C)cn1 was read as TAR Tat displ 1.3.
For CC1CCN(CCNc2ncnc3scc(-c4ccc(Cl)cc4)c23)CC1 the results were TAR Tat displ 0.36.
Screening Cc1cc2c(cc1NC(=O)CC(C)C)n(C)c(=O)n2C returned TAR Tat displ -0.46.
Screening COC(=O)C1=C(C)Nc2ccc(C)cc2S1 returned TAR Tat displ 0.78 and CDC25B-CDK2 inh -0.89.
Screening Cc1cc(C)n2ncc(C(=O)Nc3c(C)n(C)n(-c4ccccc4)c3=O)c2n1 returned TAR Tat displ 0.38.
Screening CCC(=O)N1N=C2c3cc(OC)ccc3CCC2C1c1cccc(F)c1 (centres undefined) returned CDC25B-CDK2 inh -0.81.
`O=C1CC(c2ccc(F)cc2)Sc2nc(-c3cccc4ccccc34)nn21` (centres undefined) gave CDC25B-CDK2 inh -2.7.
CC1Cc2cc(S(=O)(=O)N(C)Cc3ccco3)ccc2N1C(=O)C1CCC1 (centres undefined) was read as TAR Tat displ -0.18.
`COc1ccccc1/C=C/c1nn2c(Cc3ccccc3)nnc2s1` gave TAR Tat displ 2.5 and CDC25B-CDK2 inh 0.3.
For Cc1nc2sc(C(c3ccco3)N3CCN(C(c4ccccc4)c4ccccc4)CC3)c(O)n2n1 (centres undefined) the results were CDC25B-CDK2 inh -0.55.
`COCCCn1c(-c2ccccc2F)n[nH]c1=S` gave CDC25B-CDK2 inh -0.27.
`C(#CCN1CCCCC1)COC(c1ccccc1)c1ccccc1` gave TAR Tat displ 0.74 and CDC25B-CDK2 inh 1.6.
CCC(COc1nnnc2ccccc12)NC(=O)Nc1ccc(F)cc1 (centres undefined) was read as TAR Tat displ -0.5 and CDC25B-CDK2 inh 1.1.
Screening CCNC(=O)C1CCCN(S(=O)(=O)N2CCOCC2)C1 (centres undefined) returned TAR Tat displ 2.5.
O=C(c1cc2c(s1)-c1ccccc1S(=O)(=O)C2)N1CCN(C2CCCCC2)CC1 was read as TAR Tat displ 0.52 and CDC25B-CDK2 inh 0.54.
CCCCc1nn2c(=O)cc(CSc3n[nH]c(N)n3)nc2s1 was read as TAR Tat displ 0.04.
For Cc1ccc(C2Nc3ccccc3-n3cc4c(=O)n(C)c(=O)n(C)c4c32)o1 (centres undefined) the results were TAR Tat displ 1.2 and CDC25B-CDK2 inh 0.42.
Screening Cc1c(C(=O)NC2CCCCC2)sc2nc3n(c(=O)c12)CCCCC3 returned TAR Tat displ 1.6.
`Cc1ncc(-c2ccc(S(=O)(=O)NCc3ccc(Cl)cc3)cc2)o1` gave TAR Tat displ 0.67.
Screening CCC(=O)N1CCc2cc(Br)cc(S(=O)(=O)CCC(=O)Nc3ccc(Cl)cc3)c21 returned TAR Tat displ 0.46 and CDC25B-CDK2 inh -0.82.
Screening Cc1ncc(-c2ccc(S(=O)(=O)Nc3ccccc3C)cc2)o1 returned TAR Tat displ 0.52.
`Fc1cccc(CN2CCc3nc(N4CCN(c5ncccn5)CC4)ncc3C2)c1` gave TAR Tat displ 0.22.
CCN(C(=O)Cc1c(C(=O)O)n(C)c2ccccc12)c1ccc(F)cc1 was read as CDC25B-CDK2 inh -0.08.
O=C(c1[nH]nc2c1COc1ccccc1-2)N1CCN(C2CCCCC2)CC1 was read as TAR Tat displ -1.4.
O=C(Cn1ncc2c3ccccc3n(Cc3ccccc3F)c2c1=O)NC1CC1 was read as TAR Tat displ 1.1 and CDC25B-CDK2 inh -0.67.
O=C(COc1ccc(Cl)cc1)NCC(c1ccco1)N1CCCC1 (centres undefined) was read as TAR Tat displ 3 and CDC25B-CDK2 inh -0.76.
`Cc1nnc(SCC(=O)NC2CCCCC2)[nH]c1=O` gave TAR Tat displ 0.08 and CDC25B-CDK2 inh -1.8.
For O=C(c1cccn1-c1nnc(N2CCCC2)s1)N1CCCCC1 the results were TAR Tat displ 0.54.
`Cc1cc(NC(=O)CSc2nc3c(cnn3-c3ccccc3)c(=O)[nH]2)no1` gave TAR Tat displ 1.2.
Cc1ccc(-c2csc(NC(=O)c3sc(C)nc3C)n2)cc1 was read as TAR Tat displ 0.12 and CDC25B-CDK2 inh -5.8.
OCc1cnc(SCc2ccccc2Cl)n1Cc1ccccc1 was read as TAR Tat displ 0.56.
For Cc1cccc(NC(=S)N2CCOC2c2ccsc2)c1 (centres undefined) the results were CDC25B-CDK2 inh -0.58.

Next part (2 carried over from the part before).
OCc1cnc(SCc2ccccc2Cl)n1Cc1ccccc1 was read as TAR Tat displ 0.56.
For Cc1cccc(NC(=S)N2CCOC2c2ccsc2)c1 (centres undefined) the results were CDC25B-CDK2 inh -0.58.
For O=C(Nc1ccccc1Cl)N1CCC(CN2CCOCC2)CC1 the results were TAR Tat displ 0.19.
Screening Cc1ccc(Cl)cc1N1CCN(C(=O)C2CC3CCCN3C23C(=O)Nc2ccccc23)CC1 (centres undefined) returned TAR Tat displ -5.9.
For COc1cc(/C=C2/SC(=S)N(CC(=O)Nc3ccccc3[N+](=O)[O-])C2=O)cc(OC)c1OC the results were CDC25B-CDK2 inh -3.6.
CC(C)(C)c1ccc(OC(=O)c2ccc3nsnc3c2)cc1 was read as TAR Tat displ 0.73 and CDC25B-CDK2 inh 0.07.
`CC(C)CCn1c(SCc2ccc(Cl)cc2)nc2nccnc2c1=O` gave TAR Tat displ 0.82 and CDC25B-CDK2 inh -0.91.
Screening O=C(O)C1=CC(c2ccc(F)cc2)n2c(nc3ccccc32)N1 (centres undefined) returned CDC25B-CDK2 inh -0.15.
`CC(C)(C)OC(=O)N1CCC(CNC(=O)c2ccno2)CC1` gave CDC25B-CDK2 inh -2.2.
For O=c1nc2c(-c3cccc(Br)c3)n[nH]n2c2ccccc12 the results were TAR Tat displ 4.4 and CDC25B-CDK2 inh -0.73.
Screening CCCCOc1ccc2c(=O)c(Oc3cc(C)ccc3C)coc2c1 returned TAR Tat displ 0.48 and CDC25B-CDK2 inh 0.37.
Cc1ccc2nc(NCc3ccccc3Cl)c3nnnn3c2c1 was read as TAR Tat displ -0.33 and CDC25B-CDK2 inh 0.41.
Screening CC1CN(CC(=O)N2CCc3ccccc3C2)c2ccccc2S1 (centres undefined) returned TAR Tat displ -0.35.
For COc1cc(C2/C(=C(/O)c3ccc(C)cc3)C(=O)C(=O)N2CC(C)C)ccc1O (centres undefined) the results were TAR Tat displ 0.2 and CDC25B-CDK2 inh 0.82.
For Cc1cc(C)n(CC(=O)N2CCN(c3ccc(F)cc3)CC2)c(=O)c1C#N the results were TAR Tat displ 2.
For Cc1cc(-c2ccc(=O)[nH]n2)cc(S(=O)(=O)N2CCC(C(N)=O)CC2)c1C the results were TAR Tat displ 0.59.
`CCCOC(=O)c1cccc(N2COc3ccc4c(C)cc(=O)oc4c3C2)c1` gave CDC25B-CDK2 inh 0.11.
Screening Nc1nc(-c2ccncc2)ncc1S(=O)(=O)c1ccc(C(F)(F)F)cn1 returned CDC25B-CDK2 inh -1.1.
`CCOC(=O)N1CCN(S(=O)(=O)N2CCCC(C(=O)NCCC(C)C)C2)CC1` (centres undefined) gave TAR Tat displ 0.8.
For Cc1cc(C)cc(NC(=O)CC2CC3CCC2C3)c1 (centres undefined) the results were TAR Tat displ 1.8.

Screening data as filed in PubChem BioAssay.
